AF4-AF9 inh: inhibitors of human MLL-AF4/AF9 interaction; AlphaScreen, biotin-AF4 peptide binding to FLAG-AF9; P42568; 0.47% of 350,000 active; inhibition, % at 10 µM;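 active means every replicate reaching a set inhibition limit, whatever the replicate mean, cut at about 25% in these data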;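 further: 0% = plate neutral control median and 100% = total signal loss; the record names both 10 and 1 µM as test concentration; the first replicate is given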
Target sequence (P42568 whole entry, looked up): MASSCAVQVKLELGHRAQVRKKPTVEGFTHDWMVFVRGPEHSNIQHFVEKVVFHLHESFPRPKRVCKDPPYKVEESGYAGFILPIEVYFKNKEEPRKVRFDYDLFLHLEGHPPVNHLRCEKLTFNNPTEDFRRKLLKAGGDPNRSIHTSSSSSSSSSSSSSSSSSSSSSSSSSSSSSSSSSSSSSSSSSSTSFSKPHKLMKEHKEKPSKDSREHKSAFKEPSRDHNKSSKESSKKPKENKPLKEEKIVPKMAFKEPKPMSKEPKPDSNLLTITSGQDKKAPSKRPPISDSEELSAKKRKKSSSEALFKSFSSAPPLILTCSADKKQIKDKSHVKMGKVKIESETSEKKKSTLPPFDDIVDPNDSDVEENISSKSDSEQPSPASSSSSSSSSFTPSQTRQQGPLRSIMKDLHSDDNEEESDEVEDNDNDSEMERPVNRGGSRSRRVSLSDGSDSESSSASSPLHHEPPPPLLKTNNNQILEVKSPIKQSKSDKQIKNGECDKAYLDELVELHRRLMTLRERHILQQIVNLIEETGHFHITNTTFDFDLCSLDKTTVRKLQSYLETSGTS
rRNA inh HTS: inhibits bacterial ribosomal RNA function over humanized ribosomes; 1.6% of 350,000 active; GFP signal change (wild-type ribosome), % (test concentration not listed); AID 720706; E. coli WT GFP vs humanized-ribosome RFP mutants, fluorescence, 24 h; active compounds read low; DMSO median 0, no signal -100;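 active means significant combined selectivity score with lowered wild-type GFP, culture density cut under 30%, mutant RFP and density less affected; inactive means any of these conditions unmet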; further: one replicate is shown; some compounds called inactive have numbers as strong as hits
FGF22 binding: binders of recombinant human FGF22 by thermal shift | SYPRO orange fluorescence; percent of sucrose octasulfate shift, DMSO zero | calls only at 9.99 µM | 1.5% of 340,000 active;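 active means melting point raised past a set limit in the mean and every replicate; three in four hits are not shown here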
Target sequence (Q9HCT0 whole entry, looked up): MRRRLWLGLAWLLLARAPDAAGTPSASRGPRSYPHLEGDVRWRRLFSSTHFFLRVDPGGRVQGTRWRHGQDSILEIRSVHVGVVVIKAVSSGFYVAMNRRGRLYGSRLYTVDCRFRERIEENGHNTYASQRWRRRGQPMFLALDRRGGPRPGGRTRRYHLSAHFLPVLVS
rRNA inh HTS OD600: second read-out of rRNA inh HTS, no call of its own (marks repeat the call); OD600 change, %; measured here: OD600 growth;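 optical density of the mix in the first replicate; 0 = DMSO median and -100 = no signal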
rRNA inh HTS RFP: second read-out of rRNA inh HTS, no call of its own (marks repeat the call); RFP signal change, %; measured here: RFP humanized mutant strains;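 first replicate; 0 = DMSO median and -100 = no signal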
The depositor's hits bear a star; i = inactive; & = joins results of further samples. Some of the compounds tested (hit frequency here may not be typical).

(1) C[C@@H](O)C#Cc1cnc2c(c1)C(=O)N([C@@H](C)CO)C[C@H](C)[C@@H](CN(C)C(=O)Nc1ccc(F)cc1)O2
(2) COc1ccc(CN(C)C[C@@H]2OCCCC[C@@H](C)Oc3ccc(NC(=O)NC(C)C)cc3C(=O)N([C@H](C)CO)C[C@H]2C)cc1
(3) COc1ccc(S(=O)(=O)N(C)C[C@@H]2Oc3ccc(NS(=O)(=O)c4ccc(F)cc4)cc3CC(=O)N([C@@H](C)CO)C[C@H]2C)cc1
(4) COc1ccc2c3c(n(C)c2c1)[C@H](CO)N(C(=O)CC1CC1)CC31CCN(C(=O)CC2CC2)CC1
(5) CN1C(=O)c2cc(NC(=O)C3CC3)ccc2OC[C@H]2O[C@H](CC(=O)NC3CCC3)CC[C@@H]21
(6) CO[C@@H]1CN(C)C(=O)c2cc(NC(=O)c3nc4ccccc4s3)ccc2OC[C@H](C)NC[C@@H]1C
(7) Cc1cn(CC(=O)NCCc2c[nH]c3ccccc23)c(=O)[nH]c1=O
(8) Cc1noc(C)c1S(=O)(=O)N(C)C[C@@H]1Oc2ccc(NS(=O)(=O)c3ccc(Cl)cc3)cc2C(=O)N([C@H](C)CO)C[C@@H]1C
Assay by compound	1	2	3	4	5	6	7	8
AF4-AF9 inh	-1.2	14	0.0	0.1	-0.4	0.0	-4.6	2.0
rRNA inh HTS	3	0	0	-3	2	-3	6	-4
rRNA inh HTS OD600	9	-3	-13	0	7	-4	8	-7
rRNA inh HTS RFP	-1.1	-0.5	-0.7	-2.2	-2.1	1.5	-1.6	4.9
FGF22 binding	i	i	i	i	i	i	i	i

(9) COc1ccc(CNC(=O)C2Cc3c(-c4cccc(F)c4)ccnc3O2)cc1OC (centres undefined)
(10) CN(C)C(=O)[C@@H]1[C@@H](CO)[C@@H]2Cn3c(ccc(-c4ccccc4F)c3=O)[C@@H]2N1C(=O)c1cnccn1
(11) CO[C@@H]1CN(C)C(=O)c2ccc(NC(=O)C3CCOCC3)cc2OC[C@@H](C)N(S(=O)(=O)c2ccc(Cl)cc2)C[C@H]1C
(12) CO[C@@H]1CN(C)C(=O)c2ccc(NC(=O)C3CCC3)cc2OC[C@H](C)N(C)C[C@@H]1C
(13) CCCCCCCCN1C(=O)[C@@H](CC(=O)NCc2ccc(OC)c(OC)c2)C[C@@]2(C(=O)OC)C1=C[C@H](C1CCCC1)O[C@@H]2C
(14) CC1(C(=O)Nc2ccc(Cl)c(C(F)(F)F)c2)Cc2c(-c3ccc4c(c3)OCO4)ccnc2O1 (centres undefined)
(15) CCN1CCN(C(=O)c2cc(COc3ccc(F)c(F)c3)on2)[C@@H](C)C1=O
(16) C[C@@H]1CN([C@@H](C)CO)C(=O)c2cccc(NC(=O)Nc3ccc4c(c3)OCO4)c2O[C@@H]1CN(C)C
Assay by compound	9	10	11	12	13	14	15	16
AF4-AF9 inh	1.5	-4.0	-0.8	0.5	-2.6	0.5	-8.8	0.7
rRNA inh HTS	-10	3	-2	5	4	8	-4	8
rRNA inh HTS OD600	-18	12	0	10	1	13	-4	6
rRNA inh HTS RFP	-1.8	-5.1	-1.5	-6.1	-1.6	0.8	-2.1	0.0
FGF22 binding	i	i	i	i	i	i	i	i

(17) C[C@@H]1CCCCO[C@H](CN(C)C(=O)C2CCCCC2)[C@@H](C)CN([C@H](C)CO)C(=O)c2cc(NS(=O)(=O)c3ccc(Cl)cc3)ccc2O1
(18) Cc1noc(C)c1NC(=O)Nc1ccc2c(c1)C(=O)N([C@H](C)CO)C[C@@H](C)[C@H](CN(C)C(=O)Nc1ccc(F)cc1)OCCCC[C@H](C)O2
(19) CCC(=O)N1CC(=O)N2[C@H](CO)[C@@H](c3ccc(C#CCC(C)C)cc3)[C@H]2C1
(20) CC(=O)N(C)C[C@H]1Oc2ncc(C#Cc3ccccc3)cc2C(=O)N([C@H](C)CO)C[C@@H]1C
(21) COc1ccc(S(=O)(=O)Nc2ccc3c(c2)C(=O)N([C@@H](C)CO)C[C@H](C)[C@H](CN(C)Cc2ccncc2)OCCCC[C@@H](C)O3)cc1
(22) COc1ccccc1CNC(=O)C[C@H]1C[C@H]2c3cc(NC(=O)c4cccnc4)ccc3O[C@H]2[C@H](CO)O1
(23) CCCNC(=O)Nc1ccc2c(c1)C(=O)N(C)C[C@@H](OC)[C@@H](C)CN(Cc1ccc(-c3ccccn3)cc1)[C@H](C)CO2
(24) Oc1ccc(C[C@H]2CNC(=S)N2CC2CCCN2C[C@H](Cc2ccc(O)cc2)N2C[C@H](Cc3ccccc3)N(CCc3ccccc3)C2=S)cc1 (some centres undefined)
Assay by compound	17	18	19	20	21	22	23	24
AF4-AF9 inh	-3.2	-1.0	-2.9	0.6	1.6	-1.1	3.1	-0.1
rRNA inh HTS	2	-1	4	1	0	-1	1	5
rRNA inh HTS OD600	4	4	-9	3	5	-1	-12	4
rRNA inh HTS RFP	0.0	-1.4	2.1	1.1	1.7	-0.4	19	-4.1
FGF22 binding	i	i	i	i	i	i	i	i

Values run as follows: AF4-AF9 inh | rRNA inh HTS | rRNA inh HTS OD600 | rRNA inh HTS RFP | FGF22 binding
#25 COC(=O)[C@]12C[C@H](CC(=O)NCc3cccs3)C(=O)N(Cc3ccc4c(c3)OCO4)C1=C[C@H](C(C)(C)C)O[C@@H]2C
→ 4.3 | 16 | 2 | -0.1 | i
#26 O=C(CCN1CCCCC1)NCC[C@H]1CC[C@@H](NC(=O)C2CCOCC2)[C@@H](CO)O1
→ -4.4 | 3 | -2 | 1.3 | i
#27 CCCc1cn(CC[C@@H]2CC[C@@H](NC(=O)Nc3ccc4c(c3)OCO4)[C@H](CO)O2)nn1
→ 0.0 | 2 | 6 | 0.3 | i
#28 CC(=O)Nc1ccc(CNc2nc(NC(C)C)nc3cc(-c4ccccc4)sc23)cc1
→ 0.6 | -60 | -79 | -22 | i
#29 CC(C)NC(=O)N1[C@H](CO)[C@H](c2ccc(-c3ccc(F)cc3)cc2)[C@@H]1C#N
→ -0.1 | -2 | -14 | 0.4 | i
#30 CO[C@@H]1CN(C)C(=O)c2cc(NC(=O)Nc3ccccc3F)ccc2OC[C@H](C)N(CC2CC2)C[C@@H]1C
→ -0.7 | 0 | 0 | 1.0 | i
#31 O=C(Nc1ccccc1F)N[C@@H]1CC[C@@H](CCNS(=O)(=O)c2ccc(Cl)cc2)O[C@@H]1CO
→ -1.9 | -3 | -5 | 1.3 | i
#32 Cc1noc(C)c1NC(=O)N[C@H]1C=C[C@H](CC(=O)Nc2ccc(-c3ccccc3)cc2)O[C@@H]1CO
→ -1.7 | -5 | -2 | -0.8 | i
#33 CCOC(=O)[C@]12CCCC=C1N(CCc1ccc(OC)c(OC)c1)C(=O)[C@H](CC(=O)NCc1ccccc1)C2
→ -0.1 | -10 | -16 | 6.7 | i
#34 CC(C)CC#Cc1cnc2c(c1)C(=O)N([C@@H](C)CO)C[C@H](C)[C@@H](CN(C)Cc1ccc(F)cc1)O2
→ 6.8 | 1 | -23 | 21 | i
#35 C[C@@H]1CN([C@@H](C)CO)S(=O)(=O)c2ccc(Br)cc2O[C@H]1CN(C)Cc1ccccc1
→ 2.9 | -56 | -76 | -15 | i
#36 CCCN(C[C@H]1[C@H](c2ccccc2)[C@@H](CO)N1C(C)=O)C(=O)NC(C)C
→ -3.6&-2.7 | 0 | 9 | -1.9 | i
#37 OC[C@H]1[C@@H](c2ccc(-c3ccc(F)cc3)cc2)[C@H]2CN(CCC(F)(F)F)CCCCN21
→ 2.4 | -58 | -76 | -12 | i
#38 C[C@H](CO)N1C[C@H](C)[C@@H](CN(C)CC2CC2)Oc2ccc(NC(=O)Cc3cn(C)c4ccccc34)cc2CC1=O
→ 21 | 3 | 0 | -0.5 | i
#39 COc1ccc(CN(C)C[C@@H]2OCCCC[C@@H](C)Oc3ccc(NS(=O)(=O)c4ccccc4)cc3C(=O)N([C@H](C)CO)C[C@H]2C)cc1
→ 6.9 | 4 | 3 | 0.9 | i
#40 Cc1noc(C)c1S(=O)(=O)Nc1ccc2c(c1)CC(=O)N([C@H](C)CO)C[C@H](C)[C@H](CN(C)C(=O)Nc1ccc(F)cc1)O2
→ -1.0 | 3 | -4 | -0.4 | i
#41 COc1ccc(C(C(=O)NC(C)(C)C)n2c(=O)c(-c3ccccc3)nc3ccccc32)cc1 (centres undefined)
→ 19 | 5 | 6 | -1.1 | i
#42 C[C@@H]1CN([C@@H](C)CO)C(=O)Cc2cc(N(C)C)ccc2O[C@H]1CN(C)CC1CC1
→ 1.4 | 0 | -3 | 0.9 | i
#43 CC(C)NC(=O)Nc1ccc2c(c1)C(=O)N([C@H](C)CO)C[C@@H](C)[C@H](CN(C)C(=O)Nc1ccc(C(F)(F)F)cc1)OCCCC[C@H](C)O2
→ -0.2 | -2 | -4 | 2.2 | i
#44 COc1ccc(NC(=O)N(C)C[C@H]2Oc3ccc(NC(=O)Nc4ccccc4)cc3C(=O)N([C@@H](C)CO)C[C@@H]2C)cc1
→ -0.4 | 0 | 4 | -2.1 | i

Values run as follows: AF4-AF9 inh | rRNA inh HTS | rRNA inh HTS OD600 | rRNA inh HTS RFP | FGF22 binding
#45 CN1c2ccc(-c3ccccc3F)cc2[C@H]2[C@H](CCN2C(=O)CN2CCOCC2)[C@H]1CO
→ -1.8 | 12 | -2 | 13 | i
#46 CC(C)NC(=O)Nc1ccc2c(c1)CC(=O)N([C@H](C)CO)C[C@H](C)[C@@H](CN(C)C(=O)Nc1ccccc1)O2
→ -4.0 | 4 | 8 | 0.4 | i
#47 CCc1cnc(N2[C@H](C#N)[C@@H](c3ccccc3)[C@@H]2CO)s1
→ 0.8 | 1 | -2 | -2.7 | i
#48 O=C(c1ccc(F)cc1)N1CCCCN2[C@H](CO)[C@H](c3ccc(C#CC4(O)CCCC4)cc3)[C@@H]2C1
→ -3.4 | 3 | 4 | 3.7 | i
#49 O=C(c1ccc2c(c1)OCO2)N1CC2(C1)[C@H](c1ccccc1)[C@@H](CO)N2C(=O)C1CCC1
→ 1.5 | -2 | -9 | 3.8 | i
#50 CC1(C(=O)Nc2cccc(C#N)c2)CCN1C(=O)c1ccccc1CCc1ccccc1 (centres undefined)
→ 1.5 | -14 | -11 | -0.2 | i
#51 O=C([C@@H]1[C@@H](CO)[C@@H]2Cn3c(ccc(-c4ccncc4)c3=O)[C@@H]2N1Cc1cocn1)N1CCCCC1
→ -4.2 | 2 | 8 | -2.6 | i
#52 OC[C@H]1[C@H](c2ccc(C#Cc3ccccc3F)cc2)[C@H]2CN(Cc3cncnc3)CCCCN21
→ 2.0 | -58 | -77 | -9.3 | i
#53 CCCCC(=O)N(C)c1c(C)nc2ccc(C(=O)Nc3cccc(NS(C)(=O)=O)c3)cn12
→ -3.5 | 7 | 10 | -1.0 | i
#54 CO[C@H]1CN(C)C(=O)c2cc(NC(=O)Nc3ccc(F)cc3)ccc2OC[C@@H](C)NC[C@@H]1C
→ -9.0 | -3 | 2 | 1.6 | i
#55 CS(=O)(=O)N1[C@@H](C#N)[C@@H](c2ccccc2-c2ccccc2)[C@@H]1CO
→ -2.5 | 6 | 16 | 1.9 | i
#56 CO[C@@H](CN(C)C(=O)Nc1ccc(F)cc1)[C@@H](C)CN(Cc1ccccc1Cl)[C@H](C)CO
→ 1.7 | -4 | -7 | 2.5 | i
#57 C[C@@H](NC(=O)C[C@H]1C=C[C@H](NC(=O)C2CC2)[C@@H](CO)O1)c1ccccc1
→ -1.5 | 0 | -7 | -1.7 | i
#58 C[C@@H]1CN([C@H](C)CO)C(=O)Cc2cc(NC(=O)c3ccncc3)ccc2O[C@H]1CN(C)Cc1ccc(C(=O)O)cc1
→ -3.7 | 0 | 1 | 1.3 | i
#59 COc1ccc(S(=O)(=O)N(C)C[C@@H]2OCCCC[C@H](C)Oc3ccc(NC(=O)NC4CCCCC4)cc3C(=O)N([C@@H](C)CO)C[C@H]2C)cc1
→ -1.7 | 3 | 7 | 2.5 | i

Down the list, quoted from above:
Compounds 52–58 in FGF22 binding, in turn: i, i, i, i, i, i, i
Compounds 52–58 in rRNA inh HTS, in turn: -58, 7, -3, 6, -4, 0, 0

Looked up one by one from above, 6 records:
Values run as follows: AF4-AF9 inh | rRNA inh HTS | rRNA inh HTS OD600 | rRNA inh HTS RFP | FGF22 binding
#46 CC(C)NC(=O)Nc1ccc2c(c1)CC(=O)N([C@H](C)CO)C[C@H](C)[C@@H](CN(C)C(=O)Nc1ccccc1)O2
→ -4.0 | 4 | 8 | 0.4 | i
#54 CO[C@H]1CN(C)C(=O)c2cc(NC(=O)Nc3ccc(F)cc3)ccc2OC[C@@H](C)NC[C@@H]1C
→ -9.0 | -3 | 2 | 1.6 | i
#50 CC1(C(=O)Nc2cccc(C#N)c2)CCN1C(=O)c1ccccc1CCc1ccccc1 (centres undefined)
→ 1.5 | -14 | -11 | -0.2 | i
#59 COc1ccc(S(=O)(=O)N(C)C[C@@H]2OCCCC[C@H](C)Oc3ccc(NC(=O)NC4CCCCC4)cc3C(=O)N([C@@H](C)CO)C[C@H]2C)cc1
→ -1.7 | 3 | 7 | 2.5 | i
#53 CCCCC(=O)N(C)c1c(C)nc2ccc(C(=O)Nc3cccc(NS(C)(=O)=O)c3)cn12
→ -3.5 | 7 | 10 | -1.0 | i
#45 CN1c2ccc(-c3ccccc3F)cc2[C@H]2[C@H](CCN2C(=O)CN2CCOCC2)[C@H]1CO
→ -1.8 | 12 | -2 | 13 | i

From PubChem
